Bioassay records: PubChem BioAssay, PCMD
Biofilm kill mix = mixtures killing C. albicans biofilm | C. albicans biofilm persisters + clotrimazole, fluorescence viability; primary screen in compound mixtures of four per well | inhibition, % at 7.6 µM | actives 0.02% (n = 120,000) | AID 1242;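 active = inhibition above 30.3% in the primary screen of four-compound pools, then above 30% when the compound was retested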;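 also: compounds exposed to preformed 24 h biofilms for 48 h; the number belongs to the whole pool; some results filed as inactive read as strong as hits; inactives centre near 12; 0% = biofilm with clotrimazole alone and 100% = kill control; retested singly at about 60 µM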
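Incubation: 24 h biofilm formation, then 48 h compound exposure, 37 °C | Material: C. albicans biofilms | Buffer or medium: RPMI/MOPS medium, pH 7.0 | Measured by: 2-h Alamar Blue fluorescence, 535/590 nm excitation/emission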
* marks the source's active call; other numbers are inactive results. These rows are one share of the data, so the mix of outcomes need not match the whole.

SMILES	Biofilm kill mix
CCOC(=O)C1CCCN(CCC(=O)Nc2cc(C)cc(C)c2)C1 (configuration not stated)	1
[O-]/C(=C(\C(=S)Nc1ccc(SC(F)F)cc1)[n+]1ccccc1)c1ccc(Cl)cc1Cl	5
O=[N+]([O-])C(=c1ccc2c(c1)N1C3=C(CCCC3)CC3CCCCC31N=2)[N+](=O)[O-] (configuration not stated)	15
CCC(=O)N(Cc1ccco1)Cc1cc2cccc(C)c2n2nnnc12	9
CCN1CCN(CCOc2ccc(Cl)cc2)CC1	2
CCOc1ccccc1CNc1ccc(O)cc1	11
COc1ccc(-n2nc(C)c3onc(C)c3c2=O)cc1	7
COC(=O)c1ccc(OCc2cc(=O)n3ccsc3n2)cc1	6
COc1cccc(NC(=O)COC(=O)COc2ccccc2[N+](=O)[O-])c1	12
Oc1oc(-c2ccccc2Br)nc1C=Nc1ccc(Br)cn1	13
COC(=O)c1ccc(COc2ccc(-c3nnn(CC(=O)NC(C)(C)C)n3)cc2)cc1	10
Cc1ccccc1NC(=O)N1CCN(S(=O)(=O)c2ccccc2)CC1	1
COc1ccc(/C=C/C(=O)NC(=S)Nc2ccc(S(N)(=O)=O)cc2)cc1	16
O=C(N/N=C(\CC(=O)c1cccs1)C(F)(F)F)c1ccncc1	1
OCCNCc1cc(Br)ccc1OCc1ccccc1Cl	25
N/C(=N\OC(=O)COc1ccc([N+](=O)[O-])cc1)c1cccnc1	9
O=C(NCC(c1ccco1)N1CCCCC1)c1ccc(OCc2ccccc2)cc1 (configuration not stated)	1
Cc1ccccc1N=C1c2ccccc2C(=O)C1[N+](=O)[O-] (configuration not stated)	1
Cc1cc(N)nc2nc(C(F)(F)F)nn12	7
COc1ccc(/C=N/NC(=O)/C(=C/c2ccccc2)CCO)cc1	20
COc1ccc(CC(=O)Nc2ccc(C(N)=O)cc2)cc1	20
COCCNCC(=O)Nc1nc(C)cs1	11
CCn1c(-c2cc(-c3ccc(C)cc3)nc3ccccc23)n[nH]c1=S	5
CCOC(=O)c1ccc(NS(=O)(=O)c2cc(-c3nnnn3CC)ccc2OC)cc1	-3
CCOC(=O)C(Cc1c(F)cccc1Cl)c1ccnc2nc(N)nn12 (configuration not stated)	-6
(cont.)
SMILES	Biofilm kill mix
COc1cccc(/C=N/NC(=O)C(=O)NCc2ccco2)c1OC	17
Cc1oc2ccc(OCc3ccc(F)cc3Cl)cc2c1C(=O)O	28
COc1ccc(C(=O)NCCn2ccc3ccccc32)c(OC)c1	8
CCn1c2ccccc2c2cc(NC(=O)CN(C)CC(=O)Nc3ccc(N4CCOCC4)cc3)ccc21	-8
CCN1CCC(Nc2ccnc3cc(Cl)ccc23)CC1	20
CC(=O)N/N=C/c1c(C)[nH]n(-c2ccccc2)c1=O	15
CCOC(=O)c1cnn(-c2nc(OCC)cc(OCC)n2)c1C	3
c1cncc(CSc2nnc3ccc(-c4ccco4)nn23)c1	5
COCc1[nH]c(=S)[nH]c(=O)c1C	21
Cc1ccccc1NC(=O)Cc1nnc(NC(=O)Nc2ccccc2F)s1	12
CCNC(=O)Oc1ccc[nH]c1=O	8
COc1cc(C(=O)NCc2ccc3[nH]c(C)cc3c2)cc(OC)c1OC	2
COCCNc1ccc(N2C(=O)C3CCCCC3C2=O)cc1[N+](=O)[O-] (configuration not stated)	7
Cc1cc(Nc2ccccc2)nc(NCc2ccccc2)n1	20
O=C(Nc1nnc(-c2cccs2)o1)c1cc(-c2ccccc2)nc2ccccc12	12
COc1cc(NC(=O)COC(=O)c2n[nH]c3ccccc23)c(C)cc1[N+](=O)[O-]	-8
Cc1ccc(N2C(N)=C(C#N)C(c3cc(CN4CCOCC4)cs3)C3=C2CC(C)(C)CC3=O)cc1 (configuration not stated)	12
CC(=O)C1=C(O)C(=O)N(CCCn2ccnc2)C1c1ccc(Cl)cc1 (configuration not stated)	2
O=C(COC(=O)CNC(=O)c1ccc(Br)cc1)NCCC1=CCCCC1	1
CCCCCCCC(=O)NC1=NC(=O)C(C)(C)S1	5
Cc1ccc(S(=O)(=O)N2CCN(c3nccnc3C#N)CC2)cc1	15
C=CCN1C(=O)C(Cc2cccc(Cl)c2)SC1=Nc1ccc(C(=O)O)cc1 (configuration not stated)	11
CC(C)C[C@H](NC(=O)NCCC1=CCCCC1)C(=O)O	19
COc1cc(NC(=O)Cn2nc(-c3ccc(F)cc3)ccc2=O)ccc1-n1cnnn1	3
CC(=O)Nc1ccccc1/C=C/c1ccc2c(C)cc(C)c(O)c2n1	17
Later entries.
SMILES	Biofilm kill mix
CC(=O)Nc1ccc(N(CC(O)Cn2c3ccccc3c3ccccc32)S(=O)(=O)c2ccc(C)cc2)cc1 (configuration not stated)	16
O=C(N=NC(=O)c1ccco1)c1ccc2c(O)n(N3C(=O)c4ccccc4C3=O)c(O)c2c1	10
Cc1ccc(NC(=O)c2c3c(nc4ccccc24)CCC3)cc1S(=O)(=O)N(C)C	11
O=C(Cn1cc(/C=C\[N+](=O)[O-])c2ccccc21)Nc1ccccc1	18
COCc1cc(/C=N\NC(=O)c2ccc(Cl)cc2)ccc1OC	10
O=C(COc1nncc2ccccc12)Nc1ccc(Br)cc1F	-1
O=C1C2=C(C(c3ccccc3)=NCCN2)C(c2cccc([N+](=O)[O-])c2)N1c1ccccc1 (configuration not stated)	5
CCOC(=O)N1CCN(c2ccc(N3C(=O)CCCC3=O)cc2[N+](=O)[O-])CC1	16
COc1cc(/C=C/C(=O)O)cc(S(=O)(=O)NC2CCCC2)c1OC	12
CCOc1cc(CNn2cn[nH]c2=S)cc(Cl)c1OCc1ccccc1F	18
COc1ccc(-c2nc(-c3cccnc3)no2)cc1	13
CCOC(=O)c1cnc2c(OC)cccc2c1Nc1ccc2c(c1)OCCO2	14
O=C1CC(N2CCN(c3ccccn3)CC2)C(=O)N1c1ccc(Cl)cc1 (configuration not stated)	27
COc1cc(CN(C(=S)NCC(=O)O)C2CCCC2)cc(OC)c1OC	16
CC(=O)Nc1ccc2oc(C)nc2c1	18
O=C(CC1C(=O)NCCN1CC1CCCCC1)NCc1cccc(F)c1F (configuration not stated)	11
COc1ccc(C(=O)NNC(=O)CSc2nnc(-c3cccnc3)n2C)cc1	-2
O=C(CCCCn1c(=O)c2ccccc2n(Cc2ccccc2F)c1=O)NC1CCN(Cc2ccccc2)CC1	23
O=C(CNC(=O)c1ccccc1F)N/N=C/c1cc(Br)ccc1OCc1ccccc1	7
C/C(=N\NC(=O)c1ccc(CN2CCc3ccccc3C2)cc1)c1ccccc1O	19
C(=N\Nc1nnnn1-c1ccccc1)/c1ccncc1	10
CCC(=O)n1nc(-c2cccnc2)nc1NCc1cccs1	18
Cc1cccc(NC(=S)N/N=C/c2c[nH]c3ccccc23)c1	10
COc1ccc(C(C)=O)cc1CSc1nnc(Nc2ccc(C)cc2)s1	19
COc1ccc(N2CCN(C(=O)CCN3C(=S)NC(C)(C)CC3C)CC2)cc1 (configuration not stated)	23
(next part)
SMILES	Biofilm kill mix
Cc1cc(=O)c2ccc(C(F)(F)F)cc2[nH]1	22
CC(C)(C)OC(=O)NCCCC[C@@H](C(=O)N1CCN(C(=O)OC(C)(C)C)CC1)n1cc(C(CO)NC(=O)OC(C)(C)C)nn1 (some centres not stated)	17
Cc1ccc(CN(C(=O)c2sc3ccccc3c2Cl)C2CCS(=O)(=O)C2)cc1 (configuration not stated)	17
COC(=O)[C@@]1(Cc2ccc(OC)cc2)[C@H]2c3cc(C(=O)N(C)C)n(Cc4ccc(OC(F)(F)F)cc4)c3C[C@H]2CN1C(=O)c1ccccc1	9
Cn1cccc1C(=O)NS(=O)(=O)c1ccccc1Cl	-3
O=C(CNc1ccc(F)cc1)N/N=C1\CCc2ccccc21	5
Nc1nnc(SCC(=O)c2cccc([N+](=O)[O-])c2)s1	18
CC(=O)c1c(C(C)=O)c(C)n(-c2ccc3ncccc3c2)c1C	34
O=C(C1CCC1)N1CCN(c2ccnc3cc(Cl)ccc23)CC1	22
COc1ccc(OCC(=O)N/N=C/C=C/c2ccccc2)cc1	18
COc1ccccc1C(=O)NCC(=O)OCc1ccc(Br)cc1	11
COc1ccc(NC(=O)Nc2ccncc2)c(OC)c1	16
COc1ccc(N2C(=O)CC(Nc3ccc(C(=O)O)cc3)C2=O)cc1OC (configuration not stated)	10
CCOC(=O)c1c(OCCO)nn(-c2ccc(Cl)cc2)c1N	9
COc1ccc(-c2nc3ccc([N+](=O)[O-])cc3o2)cc1	15
CC(C)(C)C(=O)/C(=C\c1ccc([N+](=O)[O-])cc1)n1cncn1	15
Cc1[nH][nH]c(=O)c1C=NCc1cccnc1	14
Cc1ccccc1OC1C(=O)N(CC2CCCO2)C1c1ccc2c(c1)OCO2 (configuration not stated)	16
CCCCc1ccc(NC(=O)COc2ccc(C(=O)Nc3ccccc3OCC)cc2)cc1	12
COC(=O)CS(=O)(=O)c1ccsc1C(=O)Nc1ccc(F)cc1	15
Cc1cc(C(=O)NCC(=O)OCC(=O)N(C(C)C)C(C)C)ccc1[N+](=O)[O-]	29
Cn1nc(-c2ccccc2)c(C(=O)NCC(=O)O)c1Cl	9
CCN(CC)CCn1c(SCC(=O)Nc2ccc(F)cc2)nc2c(sc3ccccc32)c1=O	19
CCCCCC(=O)NC(=S)Nc1ccc(Cl)cn1	4
O=C(COC(=O)c1ccc(Br)cc1)NCCc1ccccc1	12

Some of the entries so far, as labelled records.
SMILES: CCOC(=O)c1c(OCCO)nn(-c2ccc(Cl)cc2)c1N
- Biofilm kill mix = 9
SMILES: COc1ccc(NC(=O)Nc2ccncc2)c(OC)c1
- Biofilm kill mix = 16
SMILES: COc1ccc(-c2nc3ccc([N+](=O)[O-])cc3o2)cc1
- Biofilm kill mix = 15
SMILES: Cn1nc(-c2ccccc2)c(C(=O)NCC(=O)O)c1Cl
- Biofilm kill mix = 9

(continued)
SMILES	Biofilm kill mix
O=C(N/N=C/c1cnc(N2CCOCC2)s1)c1ccccc1	6
Nc1nnn(CC(=O)N/N=C/c2ccc(Cl)cc2Cl)n1	22
Cc1cc(C)cc(OCC(=O)OCC(=O)Nc2c(C)n(C)n(-c3ccccc3)c2=O)c1	10
N#C/C(=C\c1ccc(OCC(N)=O)cc1)c1ccccc1	18
S=c1[nH]nc(-c2ccccn2)n1/N=C/c1c(Cl)cccc1Cl	16
O=C(N/N=C/c1ccc(-c2ccc([N+](=O)[O-])cc2)o1)C(O)c1ccccc1 (configuration not stated)	17
Cc1ccc(N2C(=O)C(NC(=O)c3c(F)cccc3F)(C(F)(F)F)C3=C2CC(C)(C)CC3=O)cc1 (configuration not stated)	-1
O=C(COC(=O)CCOc1ccccc1)Nc1ncc(Cl)cc1Cl	14
CCCCOc1ccc(CCC(=O)N/N=C/c2ccco2)cc1	1
CCCc1cc(=O)[nH]c(SCCCCN2C(=O)c3ccccc3C2=O)n1	5
C=CCN(c1ccccc1)S(=O)(=O)c1cccc(C(=O)OCC(=O)NC2CC2)c1	1
CCCSc1ncnc2sc(C)c(C)c12	10
CCN(CC)S(=O)(=O)c1cccc(C(=O)OCC(=O)Nc2ccc3c(c2)c2ccccc2n3CC)c1	15
Cc1ccc(CN2CCNC(=O)C2CC(=O)N(Cc2c(C)nn(C)c2C)C2CC2)o1 (configuration not stated)	7
NS(=O)(=O)c1ccc(CCNC(=O)COC(=O)/C=C/c2ccccc2Cl)cc1	4
CC1(C)COC(c2cccc(C3=NC(C)(C)CO3)n2)=N1	3
Cc1ccc(NC(=O)Nc2ncnc3nc[nH]c23)cc1	18
Cc1onc(-c2ccccc2Cl)c1NC(=O)NCc1cccs1	13
CCC1(C)Cc2[nH]c(=O)c(C#N)cc2CO1 (configuration not stated)	12
C#CCNC(=O)C1=C[C@@H](c2csc3ccccc23)[C@H](CCCO)[C@@H](OCC)O1	20
COc1cc(OC)c2ccc(=O)oc2c1C(CC(=O)N1CCCC(C)C1)c1ccc2c(c1)OCO2 (configuration not stated)	18
Cc1ccc(NC(=O)C2CCCN2C(=O)NC2CCCCC2)cc1 (configuration not stated)	16
Cc1cc(/C=C2/C(=N)N3C(c4ccccc4)=CSC3=NC2=O)c(C)n1-c1ccccc1	19
Cc1c(NC2=C(Cl)C(=O)N(c3ccccc3Cl)C2=O)c(=O)n(-c2ccccc2)n1C	14
O=[N+]([O-])c1cccc(S(=O)(=O)N2CCCC2)c1	1

5 entries drawn at random from the list so far, as already listed:
SMILES	Biofilm kill mix
Nc1nnn(CC(=O)N/N=C/c2ccc(Cl)cc2Cl)n1	22
C=CCN(c1ccccc1)S(=O)(=O)c1cccc(C(=O)OCC(=O)NC2CC2)c1	1
C#CCNC(=O)C1=C[C@@H](c2csc3ccccc23)[C@H](CCCO)[C@@H](OCC)O1	20
Cc1ccc(NC(=O)Nc2ncnc3nc[nH]c23)cc1	18
O=C(N/N=C/c1cnc(N2CCOCC2)s1)c1ccccc1	6

Other structures follow:
SMILES	Biofilm kill mix
N=C(N)SCc1nc2ccccn2c1Br	21
CCOC(=O)CSCc1nc(-c2ccc(Cl)cc2)oc1C	15
CC(C)(Oc1ccc(CCNC(=O)c2ccc(Cl)cc2)cc1)C(=O)O	21
Cc1cc(N=Nc2ccccc2C(=O)O)c(C)c(C)c1O	30
O=C(O)c1cn(Cc2ccccc2)nc1-c1cccnc1	19
Cc1c(/C=N/NC(=O)C2(O)c3ccccc3-c3ccccc32)cnn1C	6
COc1ccccc1NC(=O)/C(=C/c1cccs1)NC(=O)c1ccco1	6
COc1ccc(N2C(=S)NC3N2C(=S)NC3(C)c2ccccc2)cc1 (configuration not stated)	17
CC1=NN(C(=O)COc2ccccc2)C(O)(c2cccnc2)C1 (configuration not stated)	5
Cc1cc(NC(=S)Nc2cccnc2)ccc1Br	4

Nothing new here: entries from further up.
SMILES	Biofilm kill mix
N=C(N)SCc1nc2ccccn2c1Br	21
CCOC(=O)CSCc1nc(-c2ccc(Cl)cc2)oc1C	15
CC(C)(Oc1ccc(CCNC(=O)c2ccc(Cl)cc2)cc1)C(=O)O	21
Cc1cc(N=Nc2ccccc2C(=O)O)c(C)c(C)c1O	30
O=C(O)c1cn(Cc2ccccc2)nc1-c1cccnc1	19
